# Source: PubChem BioAssay
# PABP FP inh: PABP poly(A) RNA binding inhibitors, primary screen, biochemical, fluorescence polarization, uHTS; 1% of 290,000 active; AID 2014, 2009; inhibition, % at 35 µM; Polyadenylate-binding protein 1 (Homo sapiens), P11940;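 active = 50% or more with normal probe brightness, or confirmed in later tests; inconclusive = above 50% with abnormal brightness, or retests that disagree; inactive = below 50% or failed in later tests; about a fifth of its hits are not listed in these tables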;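 also: calls also rest on retests at 20 µM and on dose response follow-up; controls were probe without protein and protein plus probe with vehicle; some compounds called inactive have numbers as strong as hits; many hits fall short of the cut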
# Target sequence (P11940 whole entry, looked up): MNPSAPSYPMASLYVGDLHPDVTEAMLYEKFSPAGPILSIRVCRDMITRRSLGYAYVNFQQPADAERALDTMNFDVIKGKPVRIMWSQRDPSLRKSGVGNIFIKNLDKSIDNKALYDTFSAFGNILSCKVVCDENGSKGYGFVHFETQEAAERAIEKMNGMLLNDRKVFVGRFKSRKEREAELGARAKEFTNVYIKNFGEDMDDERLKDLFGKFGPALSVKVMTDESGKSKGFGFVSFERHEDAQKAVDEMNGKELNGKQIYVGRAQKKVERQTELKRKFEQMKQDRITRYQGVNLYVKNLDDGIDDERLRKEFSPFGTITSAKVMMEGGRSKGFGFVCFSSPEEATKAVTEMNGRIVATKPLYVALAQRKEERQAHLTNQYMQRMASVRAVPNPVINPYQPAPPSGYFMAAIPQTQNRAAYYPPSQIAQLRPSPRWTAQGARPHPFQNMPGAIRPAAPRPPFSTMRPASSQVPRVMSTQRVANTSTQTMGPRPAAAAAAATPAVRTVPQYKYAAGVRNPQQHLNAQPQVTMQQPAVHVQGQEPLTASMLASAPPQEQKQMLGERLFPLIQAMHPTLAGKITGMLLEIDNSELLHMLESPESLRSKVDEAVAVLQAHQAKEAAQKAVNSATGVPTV
# Rce1 inhib: yeast Rce1p protease inhibitors, primary screen, biochemical, fluorescence, cell-free homogeneous; CAAX prenyl protease 2 (Saccharomyces cerevisiae (strain ATCC 204508 / S288c)), Q03530; yeast membranes, quenched prenylated peptide cleavage fluorescence; calls only; 0.27% of 290,000 active; AID 2563, 2010;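 active = fall in fluorescence gain of 50% or more versus controls, with final raw signal at or below 3038400; inconclusive = same 50% fall but final raw signal above 3038400; inactive = fall in fluorescence gain under 50%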;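 also: plate controls were neutral control wells for no effect and wells lacking membranes for full effect; tested at 10 µM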
# Target sequence (Q03530 whole entry, looked up): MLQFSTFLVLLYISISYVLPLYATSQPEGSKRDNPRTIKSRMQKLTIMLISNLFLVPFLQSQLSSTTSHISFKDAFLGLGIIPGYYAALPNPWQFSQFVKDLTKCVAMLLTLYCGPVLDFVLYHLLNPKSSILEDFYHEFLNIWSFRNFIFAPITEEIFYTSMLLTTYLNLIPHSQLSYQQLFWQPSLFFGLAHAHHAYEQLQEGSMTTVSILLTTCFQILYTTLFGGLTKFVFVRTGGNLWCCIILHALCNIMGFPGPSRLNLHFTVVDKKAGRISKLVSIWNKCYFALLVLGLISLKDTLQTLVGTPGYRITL
# MT1-MMP act inh: blockers of MT1-MMP proenzyme processing, primary screen, HT1080 RFP-PRO-GFP cells, GFP/RFP fluorescence | Matrix metalloproteinase-14 (Homo sapiens), P50281 | GFP/RFP ratio fluorescence, overnight; percent of plate control window, DMSO zero | GFP/RFP ratio change, % at 20 µM | 0.061% of 360,000 active | AID 651647, 2012;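 active = GFP/RFP ratio change of at least 30% with cell ATP level not reduced by more than half and red fluorescence within 50% of control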; also: strong numbers were not always called active
#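 Test system: HT1080 RFP-PRO-GFP cells; Benchmarks: DMSO and RFP-L50D-GFP cell wells; Timing: cells overnight before dosing, compound overnight, 37 °C, 5% CO2; Compound: one 20 µM compound dose with 1% DMSO; Read-out: GFP/RFP fluorescence ratio.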
# CSC inhib: cancer stem cell viability inhibitors, primary screen, luminescence; cancer stem cell-like cells viability; inhibition, % at 7.5 µM; 1.1% of 300,000 active; AID 2717, 2010;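 active = mean at 75% or more and at least half the replicates too; inconclusive = mean and replicates disagree; tested in HMLE shEcad cells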;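 also: 0% = median of negative and 100% = median of positive control wells; the first replicate is given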
# Yeast UUG start: modulators of yeast start codon fidelity, primary screen, whole organism, S. cerevisiae, single point, plate reader; S. cerevisiae UUG-firefly luciferase reporter, luminescence/redox ratio; activity score, % at 18.7 µM; 0.13% of 350,000 active;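 active = replicate mean at a twofold rise or more, about +100% in these data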;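 also: firefly luciferase made from a UUG start codon reports start codon fidelity; reporter light over untreated wells divided by growth signal over untreated wells; some hits fall short of that in this replicate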
# eIF4H inh: human eIF4H binding inhibitors, primary screen, translation initiation inhibitor project, biochemical, uHTS, fluorescence polarization; eIF4H fluorescence polarization binding assay; 0.94% of 290,000 active; inhibition, % at 35 µM; AID 2012, 2009; Eukaryotic translation initiation factor 4H (Homo sapiens), Q15056;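 active = 50% or more with normal probe brightness, or confirmed in later tests; inconclusive = above 50% with abnormal brightness, or retests that disagree; inactive = below 50% or failed in later tests; about a fifth of its hits are not listed in these tables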;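 also: calls also rest on retests at 20 µM and on dose response follow-up; 0% = protein and probe with vehicle and 100% = probe without protein; strong numbers were not always called active; many hits fall short of the cut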
# HIV Env fusion: inhibitors of HIV-1 Env-driven cell-cell fusion, primary screen, HeLa-JRFL effector, CEM21 target cells, luciferase; inhibition, % at 12.3 µM; 1.1% of 360,000 active;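 active = mean replicate inhibition score of at least 50 and every replicate individually at or above 50; inconclusive = only one of the two criteria met; inactive = mean below 50 and not all replicates reaching 50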;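 also: 0% = plate neutral controls and 100% = maraviroc near 300 nM; one replicate is shown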
# eIF4H inh retest: recorded beside eIF4H inh, whose call it bears; inhibition, %; compound at 20 µM; confirmation average;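 mean of two retest wells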
# PABP FP inh retest: further read-out of PABP FP inh, marked with its call; inhibition, %; compound at 20 µM; confirmation repeats;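 mean of two retest wells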
# MT1-MMP act inh RFP: recorded beside MT1-MMP act inh, whose call it bears; RFP signal change, %; measured here: RFP expression control read;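 0 = vehicle wells; hits needed this value within 50% of zero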
# Active calls of the source: *; i = inactive; ? = inconclusive; / = not tested or not shown; & = joins results of further samples.
# Start of the data: the first four compounds, ahead of the listing:
SMILES,PABP FP inh,Rce1 inhib,MT1-MMP act inh,MT1-MMP act inh RFP,CSC inhib,Yeast UUG start,eIF4H inh,HIV Env fusion,others
CC(C)(Sc1ccc(CCN(CCCCC2CCCCC2)C(=O)NC2CCCCC2)cc1)C(=O)O,/,/,4,3,99*,-1,/,57*,
COc1ccc(CNC(=O)C(=O)NCC2OCCN2S(=O)(=O)c2ccc3c(c2)OCCO3)cc1 (centres undefined),7,i,3,-1,-3,-24,-10,-4,
O=C(N/N=C/c1cccnc1)c1ccccc1,-2,i,0,2,-8,-13,-10,-10,
CN(Cc1ccccc1)C(=O)Cc1ccccc1,2,i,0,-2,-9,-11,-10,21,

# This part in full, repeating the preview:
SMILES,PABP FP inh,Rce1 inhib,MT1-MMP act inh,MT1-MMP act inh RFP,CSC inhib,Yeast UUG start,eIF4H inh,HIV Env fusion,others
CC(C)(Sc1ccc(CCN(CCCCC2CCCCC2)C(=O)NC2CCCCC2)cc1)C(=O)O,/,/,4,3,99*,-1,/,57*,
COc1ccc(CNC(=O)C(=O)NCC2OCCN2S(=O)(=O)c2ccc3c(c2)OCCO3)cc1 (centres undefined),7,i,3,-1,-3,-24,-10,-4,
O=C(N/N=C/c1cccnc1)c1ccccc1,-2,i,0,2,-8,-13,-10,-10,
CN(Cc1ccccc1)C(=O)Cc1ccccc1,2,i,0,-2,-9,-11,-10,21,
CC(=O)NN1CCc2cc3ccc(C)cc3nc21,18,i,1,5,/,-15,28,3,
O=S(=O)(c1ccccc1)c1cccc(S(=O)(=O)N2CCCCC2)c1,4,i,2,-9,3,25,-4,-22,
CCn1c(SCC(=O)c2ccc(OC)cc2)nnc1C(C)NC(=O)c1ccc(OC)cc1 (centres undefined),5,i,3,2,8,-12,-3,/,
CCn1nnnc1Oc1ccc(Cl)cc1,2,i,3,0,-7,4,7,/,
COc1ccc(C2C(C(=O)Nc3ccccn3)=C(C)Nc3ncnn32)c(OC)c1 (centres undefined),-2,i,-1,9,-1,-25,-7,-28,
CC[N+](C)(CC)CC(=O)OCC1C(C)C=C(C)CC1C (centres undefined),60,i,-4,-5,9,8,-6,17,eIF4H inh retest=-6;PABP FP inh retest=0
O=C1COc2ccc(C(=O)COC(=O)CNC(=O)c3ccco3)cc2N1,7,/,-4,-1,1,/,-3,-6,
CCOC(=O)c1ccc(NC(=O)Cn2cnc(S(=O)(=O)N3CCCC3)c2)cc1,3,i,3,1,/,-9,-8,/,
CN(C)c1cccc2c(S(=O)(=O)NC(=O)[C@H]3O[C@@H](n4cnc5c(N)ncnc54)[C@H](O)[C@@H]3O)cccc12,/,/,2,3,/,-5,/,4,
CCN(C(=O)c1ccc(C(C)(C)C)cc1)c1nnc(Cn2nnc3ccccc32)s1,10,i,0,-32,62,-19,-11,/,
COc1ccc(S(=O)(=O)N2CCC(n3cnc4ccccc43)CC2)cc1,-6,i,-4,-5,/,11,-5,9,
O=C(O)c1ccc(/C=C2\SC(=Nc3ccccc3)N(c3ccccc3)C2=O)cc1,?,i,-8,-11,-8,/,-5,-4,
O=c1nc2ccccc2c2n1CC(CN1CCN(c3ccccc3F)CC1)N2 (centres undefined),2,i,4,5,7,/,2,/,
COc1cccc(NC(=O)Nc2nnc(Cc3ccc(F)cc3)s2)c1,1,i,-2,2,1,-23,-7,3,
C/C(=N\Nc1ccccn1)c1ccc2c(c1)OCO2,0,i,1,2,-3,-4,1,-59,
CC1CCCN(CC(=O)Nc2cc(Cl)ccc2Oc2ccccc2)C1 (centres undefined),-6,i,-6,-12,/,-14,-10,17,
Cn1nc(C(=O)Nc2nc(-c3ccc(F)cc3)cs2)ccc1=O,3,i,-7,-28,-5,0,-5,6,
COc1ccccc1NS(=O)(=O)c1ccc(O)c(C(=O)OCC(=O)c2ccc(Cl)cc2Cl)c1,1,i,4,7,3,/,-7,-16,
COC(=O)/C=c1\sc2ncnn2c1=O,4,i,1,10,18,/,-9,/,
CCC1(CC)Cc2ccccc2-c2nc(CN(C)C)[nH]c(=O)c21,3,i,7,3,4,-9,-1,43,
C[C@@H]1ON(C2CCCCC2)[C@H]2c3nc4ccccc4n3C[C@@H]12,2,i,-3,3,-7,-21,-7,11,
Cc1ccc(C(=O)C(C)Oc2cccc(NC(=O)c3ccco3)c2)cc1 (centres undefined),6,i,1,-3,-9,15,-1,/,
O=C(CS(=O)(=O)c1ccccc1)N1CCCCC1,3,i,3,2,-6,-16,-6,-24,
CC1CCC(NS(=O)(=O)c2cccc3nsnc23)CC1 (centres undefined),12,i,4,3,-5,15,3,2,
c1cc(CNCCCN2CCOCC2)ccn1,3,i,-2,1,/,-4,0,-134,
C=CCN(C(=O)CNC(=O)c1cccs1)C(C(=O)NC(C)(C)C)c1ccccc1 (centres undefined),-7,i,-5,-4,-8,/,-5,0,

# 6 structures already listed, sorted by formula weight, lowest first:
SMILES,PABP FP inh,Rce1 inhib,MT1-MMP act inh,MT1-MMP act inh RFP,CSC inhib,Yeast UUG start,eIF4H inh,HIV Env fusion,others
CC1CCC(NS(=O)(=O)c2cccc3nsnc23)CC1 (centres undefined),12,i,4,3,-5,15,3,2,
Cn1nc(C(=O)Nc2nc(-c3ccc(F)cc3)cs2)ccc1=O,3,i,-7,-28,-5,0,-5,6,
COc1cccc(NC(=O)Nc2nnc(Cc3ccc(F)cc3)s2)c1,1,i,-2,2,1,-23,-7,3,
CC1CCCN(CC(=O)Nc2cc(Cl)ccc2Oc2ccccc2)C1 (centres undefined),-6,i,-6,-12,/,-14,-10,17,
O=C(O)c1ccc(/C=C2\SC(=Nc3ccccc3)N(c3ccccc3)C2=O)cc1,?,i,-8,-11,-8,/,-5,-4,
COc1ccccc1NS(=O)(=O)c1ccc(O)c(C(=O)OCC(=O)c2ccc(Cl)cc2Cl)c1,1,i,4,7,3,/,-7,-16,

# Later entries.
SMILES,PABP FP inh,Rce1 inhib,MT1-MMP act inh,MT1-MMP act inh RFP,CSC inhib,Yeast UUG start,eIF4H inh,HIV Env fusion,others
O=C1CCC(C(=O)N2CCCCCC2)CN1CCc1ccc(Cl)cc1 (centres undefined),-3,i,-5,-4,-4,12,-7,-10,
COc1ccc(C(CC(=O)Nc2ccc(Cl)cc2F)NC(=O)C(F)(F)F)cc1 (centres undefined),-1,i,2,3,/,-17,0,-8,
O=C(NCC1CCCO1)c1ccc(Cl)c(S(=O)(=O)Nc2ccccc2)c1 (centres undefined),3,i,3,0,-14,-10,10,-3,
O=C(Nc1ccc2oc(-c3ccc(Cl)c(Cl)c3)nc2c1)c1ncn[nH]1,8.3*,i,-11,-15,2,-47,?,-121,PABP FP inh retest=98*
COc1ccc(N2C(S)=C(C#N)C(=O)NC2c2ccco2)cc1 (centres undefined),0,i,5,6,20,/,1,/,
O=C(O)CCCCc1nc2ccccc2s1,8,i,5,2,-10,-26,7,-53,
O=S1(=O)CCN(C(CCO)c2cccc(C(F)(F)F)c2)CC1 (centres undefined),-1,i,-2,2,-15,/,4,20,
O=C(Nc1ccc(NC(=O)c2ccccc2Cl)cc1)c1cccnc1,-2,i,2,0,-12,-22,-4,-3,
CC1(C)CCC(C)(C)NC(=S)N1,1,i,1&6,1&2,-3,-10,2,-8&14,
CCOc1ccc(-n2c(N)c(C(=O)NCc3cccnc3)sc2=S)cc1,11,i,-4,-6,-7,-17,-2,-22,
N/C(Cc1ccc([N+](=O)[O-])cc1)=N\OC(=O)C(c1ccccc1)c1ccccc1,17,/,3,-9,-4,/,-9,/,
Cc1cccc(C)c1NC(=O)c1cc(S(=O)(=O)N2CCc3ccccc32)cn1C,0,i,-3,-2,-8,-18,-6,-5,
COc1ccc(C(=O)Nc2cccc(OC)c2)cc1,2,i,10,0,7,-34,-8,/,
Cc1cc(=O)n2c(-c3ccccc3C)n[nH]c2n1,9,i,4,5,-4,0,-2,/,
CC1=NN(C(N)=S)C(=O)C1N=Nc1ccc(Cl)cc1Cl (centres undefined),13,i,1,-4,11,-30,-1,-13,

# Entries listed so far that contain a COOH group, in the order listed:
SMILES,PABP FP inh,Rce1 inhib,MT1-MMP act inh,MT1-MMP act inh RFP,CSC inhib,Yeast UUG start,eIF4H inh,HIV Env fusion,others
CC(C)(Sc1ccc(CCN(CCCCC2CCCCC2)C(=O)NC2CCCCC2)cc1)C(=O)O,/,/,4,3,99*,-1,/,57*,
O=C(O)c1ccc(/C=C2\SC(=Nc3ccccc3)N(c3ccccc3)C2=O)cc1,?,i,-8,-11,-8,/,-5,-4,
O=C(O)CCCCc1nc2ccccc2s1,8,i,5,2,-10,-26,7,-53,

# (continued)
SMILES,PABP FP inh,Rce1 inhib,MT1-MMP act inh,MT1-MMP act inh RFP,CSC inhib,Yeast UUG start,eIF4H inh,HIV Env fusion,others
FC(F)(F)c1cnc(NNC(=S)Nc2ccccc2)c(Cl)c1,/,/,1,-15,/,-14,/,-7,
NC(=O)CCS(=O)(=O)c1ccc(Cl)cc1,-4,i,2,4,-1,-11,-7,2,
CC(C)(C)NC(=O)CSc1nnc(-c2c[nH]c3ccccc23)o1,-1,i,1,2,/,5,0,-16,
Nc1nc(N)nc(-c2cc(F)ccc2O)n1,/,/,-6,-4,3,-18,/,6,
CC1=C/C(=N\NC(=S)Nc2cccnc2)CC(C)(C)C1,-2,i,7,-4,/,-32,5,1,
Cc1ccc(NC(=O)COc2ncnc3c(Cl)cc(Cl)cc23)cc1[N+](=O)[O-],11,i,2,2,4,/,3,10,
Cn1c(CSCc2ccc(F)cc2)nnc1SCC(=O)Nc1nccs1,-6,i,/,/,4,-15,-4,27,
NCCCNC(=S)NCCCN(Cc1ccc(Cl)cc1)c1ccc(Br)cn1,/,/,0,-6,/,-9,/,0,
Cc1cccc(C)c1NC1=NCCCCC1,-8,i,-1,-3,2,/,7,-13,
CSCC(=O)N1CCCC(N2CCN(c3ccc(F)cc3)CC2)C1 (centres undefined),1,i,1,2,-5,-28,-6,-5,
O=C(CN1CCCC1)NN=C(c1ccccc1)c1ccccc1,-5,i,-2,-2,-2,/,5,5,
O=C1/C(=C/c2ccco2)SC(=S)N1c1cccnc1,84*,i,4,6,/,-17,92*,-39,
Cc1ccc(S(=O)(=O)N2CC(=NO)C2)cc1,5,i,5,-5,-18,4,-6,-29,
Cc1ccc2c(c1)[C@H]1[C@H](CO2)[C@H](c2ccccc2)[C@]2(C)C(=O)N(Cc3ccco3)CC(=O)N12,/,/,-4,-1,-6,-9,/,17,
Cc1csc2nc(CNC(=O)C3CC=CCC3C(=O)O)cn12 (centres undefined),-6,i,-2,9,-10,-30,-3,7,
